Bioassay records from PubChem.
RGS16-Gao: modulators of RGS16 binding to Galphao, primary screen, biochemical, human proteins, multiplexed bead flow cytometry; Regulator of G-protein signaling 16 (Homo sapiens) + Guanine nucleotide-binding protein …; AID 1441, 2008; 0.38% of 220,000 active; bead-based flow cytometry RGS16-Galphao binding, fluorescence; actives lie on both sides; binding response (% of control), % at 10 µM;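 active = below 25% or above 175%, edge rows of some plates excepted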;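 note: Galphao activated by GDP with aluminum fluoride before binding; 100% = wells without compound and 0% = beads without RGS; some results beyond the cut were filed as inactive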
Target sequence (O15492 whole entry, looked up): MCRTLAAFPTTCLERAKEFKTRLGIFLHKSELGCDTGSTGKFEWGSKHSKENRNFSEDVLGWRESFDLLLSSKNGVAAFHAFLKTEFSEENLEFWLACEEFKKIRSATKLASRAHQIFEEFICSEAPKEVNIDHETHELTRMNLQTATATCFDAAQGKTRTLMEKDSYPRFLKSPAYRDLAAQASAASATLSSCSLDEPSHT
Target sequence (P09471 whole entry, looked up): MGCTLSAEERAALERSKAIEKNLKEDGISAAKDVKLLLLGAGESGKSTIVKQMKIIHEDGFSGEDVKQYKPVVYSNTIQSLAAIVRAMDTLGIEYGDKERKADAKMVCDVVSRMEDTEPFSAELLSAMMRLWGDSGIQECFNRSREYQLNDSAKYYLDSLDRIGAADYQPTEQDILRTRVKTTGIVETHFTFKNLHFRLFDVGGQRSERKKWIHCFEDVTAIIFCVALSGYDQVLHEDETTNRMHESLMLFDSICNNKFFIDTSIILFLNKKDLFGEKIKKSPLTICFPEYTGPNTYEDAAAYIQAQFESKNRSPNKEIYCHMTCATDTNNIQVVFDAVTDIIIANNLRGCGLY
GALR2 agonist: GALR2 receptor agonists, primary screen, cell-based. activation, %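 (tested at 5 µM)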. AID 803, 2007. 0.48% of 140,000 active. Galanin receptor type 2 (Homo sapiens), O43603. GALR2-expressing cells, agonist activation read-out;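 active = above mean plus 3 SD of all compounds, about 5% in these data, not always enough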;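 note: 0% = vehicle buffer wells and 100% = reference agonist at full effect; tested in CHO reporter cells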
Target sequence (O43603 whole entry, looked up): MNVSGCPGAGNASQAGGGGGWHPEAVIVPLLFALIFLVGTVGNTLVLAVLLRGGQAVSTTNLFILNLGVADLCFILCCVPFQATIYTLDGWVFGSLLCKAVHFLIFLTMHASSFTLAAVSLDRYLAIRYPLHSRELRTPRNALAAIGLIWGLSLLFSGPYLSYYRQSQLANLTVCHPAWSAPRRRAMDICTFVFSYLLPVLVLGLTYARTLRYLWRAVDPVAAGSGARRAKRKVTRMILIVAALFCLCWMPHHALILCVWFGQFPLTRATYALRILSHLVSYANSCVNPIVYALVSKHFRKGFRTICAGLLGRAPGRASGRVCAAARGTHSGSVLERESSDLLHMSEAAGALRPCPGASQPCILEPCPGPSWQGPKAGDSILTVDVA
PKD1 kinase inh: inhibitors of human PKD1 kinase, biochemical, fluorescence polarization. PKD1 kinase fluorescence polarization assay. inhibition, %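 (about 10 µM by stock and volumes)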. Serine/threonine-protein kinase D1 (Homo sapiens), Q15139. 0.056% of 200,000 active;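 active = inhibition of 50% or more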;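 note: controls were vehicle for no effect and a reference inhibitor for full effect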
HSV replic up: enhancers of HSV replication in host cells, fold increase, host cell viability | HSV replication augmentation in cells | maximum fold increase | 0.005% of 220,000 active | AID 1956, 2009;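 active = peak rise of 1.5-fold or more in the series; inconclusive = self-fluorescent or not available for retest; tested in PC3 cells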;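 note: first round at 10 µM; read as green reporter fluorescence; hits show the peak of a series up to 25 µM; 1 = signal of infected wells without compound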
Insulin prom inh: inhibitors of insulin promoter-driven GFP, primary screen, imaging, TRM-6 cells (human fetal islet line), eGFP reporter, cell count; reporter expression induced with tamoxifen; inhibition, % at 2 µM; 0.9% of 130,000 active;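 active = inhibition above the mean plus 3 SD, with well images judged a real hit on visual review, cut at about 60% in these data, passing the limit was not always enough; inconclusive = inhibition over the cutoff but images rejected on review; inactive = inhibition not above the cutoff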
Insulin prom inh cell count: also measured in Insulin prom inh; calls as there; normalized cell count, %; measured here: cell count, toxicity; reference of the scale not given here;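 cells exposed to compound for 48 h; stained nuclei by imaging scaled within each plate; lower means fewer cells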
HSV replic up primary fold: also measured in HSV replic up; calls as there; fold increase; compound at 10 µM; measured here: primary screen fold increase 10 uM; tested in PC3 cells;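 GFP signal in the first replicate; 1 = infected wells without compound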
* = called active by the depositor; i = inactive; ? = inconclusive; . = no result given.

SMILES	RGS16-Gao	GALR2 agonist	PKD1 kinase inh	HSV replic up	HSV replic up primary fold	Insulin prom inh	Insulin prom inh cell count
Cc1cc(=O)[nH]c(N/N=C/c2sccc2C)n1	129	-1.8	-14	i	1	27	64
CCOc1ccc(-c2nnn(CC(=O)NCc3ccc(OC)cc3)n2)cc1OCC	86	0.5	-13	i	0.97	-64	73
CC(=O)c1cccc(NC(=O)N2CCCC2C(=O)NC2CCCCC2)c1 (stereo not given)	85	-0.7	-3	i	0.94	.	.
CCOC(=O)c1cc2sc(C)cc2n1CCCN1C(=O)c2ccccc2C1=O	101	0.1	-6	i	0.8	35	89
COc1ccc(C2C(C(=O)c3ccccc3)=C(C)Nc3nc4ccccc4n32)c(OC)c1 (stereo not given)	101	-0.8	-6	.	.	-46	53
CCOC(=O)c1sc(SC)nc1N	99	.	6	i	0.96	.	.
Cc1cccc(C)c1NC(=S)Nc1c(C)n(C)n(-c2ccccc2)c1=O	99	-1.1	5	i	1.1	34	89
Cc1cc(O)c(C2=Nc3ccccc3SC(c3ccc(Cl)cc3)C2)c(=O)o1 (stereo not given)	111	-0.8	0	i	1	-6	96
CC(C)NC(=O)CCS(=O)(=O)c1cccc2nonc12	98	-1.8	5	i	1.1	-18	125
O=C(N/N=C/C1=C(N2CCOCC2)C(=C\c2ccccc2)/CC1)Nc1ccccc1	104	-0.1	-6	i	0.85	-6	93
O=C(Nc1ccc(Cl)cc1C(=O)NCc1cccnc1)c1ccc(Cl)cc1Cl	101	0.6	2	i	0.72	.	.
CCOc1ccc2c3c(c(=O)oc2c1OCC)CCCC3	99	0.8	1	i	1.1	16	73
CCOC(=O)c1ccc2c(c1)N(CC(=O)N1CCCCC1)C(=O)C(C)(C)O2	101	-1.9	-11	i	0.74	-300	74
CCOC(=O)c1c(NC(=O)C2C3CCC(O3)C2C(=O)O)sc2c1CCCC2 (stereo not given)	85	.	0	i	0.81	.	.
O=C(CSc1nnc(CN2CCOCC2)n1-c1ccccc1)N1CCc2ccccc21	101	0.2	1	i	0.82	-38	131
COc1ccc(N2CCN(Cc3nc4c(c(=O)n(C)c(=O)n4C)n3CC(C)=O)CC2)cc1	101	-4.0	0	i	0.79	33	114
Cc1ccc2c(c1)C1CN(C)CCC1N2C(=O)COc1ccc(N(C)S(=O)(=O)c2cccs2)cc1 (stereo not given)	95	.	.	i	0.89	.	.
CCc1cc(C(=O)N2CCCC(C(=O)c3cccc4ccccc34)C2)n(C)n1 (stereo not given)	103	.	-1	i	1.2	.	.
O=C(CSc1nnnn1-c1ccc(Cl)cc1)NC(=O)Nc1ccc2c(c1)OCCO2	104	-0.7	-7	i	1	-20	181
CCOC(=O)N1CCN(C(=O)Nc2sc3nc4n(c(=O)c3c2C)CCC(C)CC4)CC1 (stereo not given)	98	0.7	-7	i	0.68	.	.
COc1cccc(C2NC(=O)NC(C)=C2C(=O)Nc2ccccc2C)c1 (stereo not given)	104	-1.6	-8	i	1.1	.	.
Cc1cc(C(=O)Nc2ccc(N3CCCCC3)cc2)no1	95	.	.	i	1	.	.
Cc1ccc(CSc2nnc(-c3ccco3)o2)cc1	105	-1.6	3	.	.	29	68
CCn1c(N2CCN(S(=O)(=O)CC)CC2)nc2ccccc21	99	.	-8	i	0.92	-42	102
CCOC(=O)CSc1[nH]c(=O)cc(C)c1C#N	105	-2.5	-11	i	1	14	119
COc1ccc(/C=C2\SC(=S)N(CC3CCCO3)C2=O)cc1 (stereo not given)	102	.	.	i	1.1	.	.
CC(C)Cn1c(N)c(C(=O)COC(=O)c2cccc(Cl)c2)c(=O)n(C)c1=O	99	.	2	i	1.2	5	134
CCC(CO)n1cnnc1-c1ccncc1 (stereo not given)	94	-2.3	-9	i	1.1	7	154
Cc1ccc(NS(=O)(=O)c2ccc(NC(=O)c3ccc(-c4ccccc4)cc3)cc2)c(C)c1	.	0.9	-2	i	0.52	-23	115
Cc1ccc(S(=O)(=O)CCC(=O)Nc2ccc3nc(C)sc3c2)cc1	90	-1.0	-3	i	1	.	.
COCc1c(C#N)c(NCc2cc(OC)c(OC)c(OC)c2)nc(C)c1[N+](=O)[O-]	102	.	.	i	1.1	.	.
CN(C)S(=O)(=O)c1ccc(C(=O)Nc2nc(-c3cc4ccccc4o3)cs2)cc1	107	-1.3	-9	i	0.71	-8	132
CN1CCN(C(=O)c2cc3c(s2)-c2ccccc2S(=O)(=O)C3)CC1	103	-2.7	-9	i	0.89	.	.
COc1cc(NC(=O)Cn2c(C)cc3ccccc3c2=O)cc(OC)c1OC	97	-0.3	-7	i	0.92	14	130
O=c1c2ccccc2nc(/C=C/c2cccnc2)n1Cc1ccccc1	110	.	-3	i	0.89	.	.
CC1=C(C#N)c2nc(N)c(C#N)c(C)c2/C1=C\c1ccc(OCC(=O)O)c(Cl)c1	97	.	.	?	.	.	.
CCOC(=O)c1c(C)[nH]c(C(=O)OCCOc2ccccc2C)c1C	103	2.5	3	i	0.84	.	.
COc1ccc(/C=C/c2cc(C(F)(F)F)[nH]c(=O)n2)cc1OC	101	.	-4	i	1.1	-81	72
CCn1c(NCc2ccccn2)nc2ccccc21	105	-2.3	-8	i	0.92	8	92
C/C=C/C(=O)Nc1cccc(C2=NOC3(C2)C[C@H](C(N)=O)N(C(=O)/C=C/C)C3)c1 (stereo not given in full)	103	.	.	i	0.96	.	.
Cc1ccc(NC(=O)c2ccc(C(C)(C)C)cc2)cc1-n1cnnn1	99	.	-1	i	0.74	-8	76
COc1ccc(Cl)cc1C(=O)NNC(=O)CN1C(=O)C2CC=CCC2C1=O (stereo not given)	103	.	-1	i	0.85	25	169
O=C(Nc1nnc(C2COc3ccccc3O2)o1)c1ccc(F)cc1 (stereo not given)	95	-0.2	-2	i	0.91	.	.
CCCc1nc2oc3cc(OC)ccc3c(=O)c2c(=O)n1Cc1ccco1	86	-0.5	-14	?	.	3	113
Cc1cc(C(=O)NNC2CC(=O)N(c3ccc4ccccc4c3)C2=O)c(C)o1 (stereo not given)	102	.	1	i	0.96	.	.
CCOC(=O)c1c(CN(CC)CC)oc2ccc(OC)cc12	102	-1.8	-2	i	0.92	-62	87
Cc1ccc(C)c2nc3sc(C(=O)N4CCCc5ccccc54)c(N)c3cc12	104	-1.2	0	.	.	10	86
CCOC(=O)C1CCCN(C(=O)CCC(=O)Nc2ccc3nc(N4CCOCC4)cc(C)c3c2)C1 (stereo not given)	106	-2.2	-5	.	.	.	.
COc1ccc([N+](=O)[O-])cc1NC(=S)NC(NC(=O)C(c1ccccc1)c1ccccc1)C(Cl)(Cl)Cl (stereo not given)	99	-2.6	2	i	0.72	-62	71
CC1CC(C)CN(c2ncnc3c2cnn3-c2ccc(Cl)cc2)C1 (stereo not given)	99	-1.0	-10	i	0.91	.	.
O=C(COc1ccccc1)N1CCN=C1SCc1cccc(F)c1	97	.	.	i	0.87	.	.
Cc1ccc(N(CC(=O)N2CCc3ccccc32)C2=NC(=O)CS2)cc1	94	0.6	-7	i	0.8	0	37
Cc1occc1-c1nnc(SCC(=O)c2ccc(F)cc2)n1Cc1ccco1	103	0.7	-14	i	0.82	14	52
NC(=O)Cc1ncc(C(F)(F)F)cc1Cl	102	.	2	i	1.1	.	.
CC(C)(C)OC(=O)NCCC(=O)N/N=C/c1cccc2cccnc12	98	.	.	i	0.87	.	.
O=C(CSc1nnnn1C1CCCCC1)NCc1cccs1	100	.	-3	i	0.97	5	98
Cc1ccc(C(=O)CC2(O)C(=O)N(Cc3ccc4c(c3)OCO4)c3ccccc32)cc1 (stereo not given)	102	-2.2	-25	i	0.92	.	.
Cc1ccc(-c2nnc(Oc3cccc(C)c3)c3ccccc23)cc1	92	0.0	-7	i	1.1	63	68
CC(Sc1nc(O)c(-c2ccccc2)c(=O)[nH]1)C(=O)Nc1ccc(Cl)cc1 (stereo not given)	92	.	-8	i	1	64	141
CCN(CC)S(=O)(=O)c1ccc(S(=O)(=O)N2CCN(CCC#N)CC2)cc1	102	-0.6	3	i	1.4	.	.

Following part.
SMILES	RGS16-Gao	GALR2 agonist	PKD1 kinase inh	HSV replic up	HSV replic up primary fold	Insulin prom inh	Insulin prom inh cell count
COc1cccc(CNS(=O)(=O)/C=C/c2ccc3c(c2)OCO3)c1	95	-1.4	-18	i	0.81	.	.
COCCN(CCOC)C(=O)c1cc2c(=O)n3ccccc3nc2s1	102	0.0	-10	i	1.3	.	.
CCOC(=O)CSc1nnc(-c2ccncc2)o1	106	-0.9	0	i	0.89	-32	122
COc1cc(Cl)cc2c1Sc1ccccc1/C2=C/CCN(C)C	99	-0.8	-13	i	0.88	.	.
CCc1ccc(OC)c(S(=O)(=O)Nc2ccccc2C)c1	111	-0.4	-5	i	0.74	24	106
CC1CCc2nc3ccccc3c(C(=O)OCC(=O)NC3CCS(=O)(=O)C3)c2C1 (stereo not given)	105	.	-5	i	1	-33	82
Cc1ccc(-c2csc3nc(C)n(N)c(=O)c23)cc1	101	.	2	i	0.99	-67	133
c1ccn2c(SCc3ccc4c(c3)OCCO4)nnc2c1	.	-2.4	5	i	1	0	138
CC(C)(C)C(=O)Nc1ccc(S(=O)(=O)c2ccc(NC(=O)C(C)(C)C)cc2)cc1	116	-0.5	6	i	0.8	75*	90*
C=CCNCCOCCOc1ccc(Cl)cc1C(C)(C)C	99	-1.3	0	i	0.75	7	142
O=c1c2cn[nH]c2[nH]c(=S)n1-c1cccc2ccccc12	101	-2.0	-12	i	1.1	0	57
Cc1ccc(-c2nn(-c3cc(Cl)ccc3[N+](=O)[O-])c(=O)c3ccccc23)cc1	97	0.3	3	i	0.87	-2	162
NS(=O)(=O)c1ccc(NC(=O)CCCC(=O)O)cc1	98	.	-6	i	0.97	.	.
Cc1ccc(O)c(NC(=O)c2cc(-c3ccc(F)cc3)on2)c1	98	.	1	i	0.83	.	.
O=C(COC(=O)C1CC2C=CC1C2)Nc1cccc(S(=O)(=O)N2CCCCC2)c1 (stereo not given)	112	0.4	4	i	1	-7	81
O=S(=O)(c1ccc(OCC2CO2)cc1)c1ccc(OCC2CO2)cc1 (stereo not given)	100	.	3	i	0.9	-400	122
Oc1ccc(C(c2nnnn2CCc2ccccc2)N2CCN(c3nc4ccccc4s3)CC2)cc1 (stereo not given)	96	.	.	i	0.89	.	.
COCCNc1nnc(SCC(=O)Nc2sc3c(c2C(=O)c2ccccc2)CCCC3)s1	101	-0.6	1	i	0.92	-58	112
CCc1ccc2nc(SCC(=O)Nc3ccccc3N3CCOCC3)c(C#N)cc2c1	96	.	.	i	0.64	.	.
CCOC(=O)CSC1=C(C#N)C(c2ccccc2OC)CC(=O)N1 (stereo not given)	102	-5.1	-17	i	0.72	.	.
CCCN1C(=O)NC2(O)C(=O)c3ccccc3C12O (stereo not given)	108	-1.9	-4	i	1.1	.	.
COc1ccc(-n2c(SCC(=O)Nc3cccc4ccccc34)nc(O)cc2=O)cc1	105	.	.	i	0.96	.	.
Cc1cccc(N(CC(=O)NC(C)C)C(=O)c2ccc(N3CCCC3)nc2)c1	101	.	-6	i	0.87	.	.
Cc1c(C(=O)Nc2ccc(Oc3ccccc3)cc2)sc2nc3n(c(=O)c12)CCC3	99	-1.7	2	i	0.89	58	55
CC(C)NC(=O)c1ccccc1NC(=O)CN(c1ccc2c(c1)OCO2)S(C)(=O)=O	91	2.3	6	i	1.1	7	80

Arranged by length of the SMILES (ascending): some entries from above
SMILES	RGS16-Gao	GALR2 agonist	PKD1 kinase inh	HSV replic up	HSV replic up primary fold	Insulin prom inh	Insulin prom inh cell count
CCOC(=O)c1c(CN(CC)CC)oc2ccc(OC)cc12	102	-1.8	-2	i	0.92	-62	87
CCN(CC)S(=O)(=O)c1ccc(S(=O)(=O)N2CCN(CCC#N)CC2)cc1	102	-0.6	3	i	1.4	.	.
CC(C)(C)C(=O)Nc1ccc(S(=O)(=O)c2ccc(NC(=O)C(C)(C)C)cc2)cc1	116	-0.5	6	i	0.8	75*	90*

Some of the entries so far, with each value named.
> Oc1ccc(C(c2nnnn2CCc2ccccc2)N2CCN(c3nc4ccccc4s3)CC2)cc1 (stereo not given)
- RGS16-Gao: 96
- GALR2 agonist: .
- PKD1 kinase inh: .
- HSV replic up: i
- HSV replic up primary fold: 0.89
- Insulin prom inh: .
- Insulin prom inh cell count: .

> COCCNc1nnc(SCC(=O)Nc2sc3c(c2C(=O)c2ccccc2)CCCC3)s1
- RGS16-Gao: 101
- GALR2 agonist: -0.6
- PKD1 kinase inh: 1
- HSV replic up: i
- HSV replic up primary fold: 0.92
- Insulin prom inh: -58
- Insulin prom inh cell count: 112
